# Source: PubChem (several laboratories)
# Vif A3G: HIV-1 Vif–A3G interaction blockers – biochemical, TR-FRET, GST-Vif 1-94, biotin-A3G peptide, dose response retest, primary screen (AID 1117319); TR-FRET GST-Vif / biotin-A3G peptide binding; higher % means a stronger effect; test concentration not given here; strong numbers were not always called active; inhibition, %; hits with a dose series show IC50 in µM; 0.57% of 260,000 active;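 active = above the screen mean plus three standard deviations and confirmed in dose response; inconclusive = results disagree or hit not tested in dose response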;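 also: Vif residues 1-94 fused to GST binding biotinylated APOBEC3G peptide 110-148; 0% = full assay without inhibitor and 100% = GST in place of GST-Vif; retest series ran down from 100 µM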
# B2AR ag: human beta-2 adrenergic receptor agonism by FAP | Am2.2-beta2AR cells, FAP receptor internalization, flow cytometry; reference of the scale not given here | response, % (test concentration not listed) | 0.43% of 340,000 active | AID 504454;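 active = response above a set limit, near 3 SD of response in nonfluorescent compounds, cut at about 42% in these data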;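 also: stock transfer was 100 nL into about 11 µL; a reference agonist was the positive control; negative values mostly stem from fluorescent compounds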
# Target sequence (P07550 whole entry, looked up): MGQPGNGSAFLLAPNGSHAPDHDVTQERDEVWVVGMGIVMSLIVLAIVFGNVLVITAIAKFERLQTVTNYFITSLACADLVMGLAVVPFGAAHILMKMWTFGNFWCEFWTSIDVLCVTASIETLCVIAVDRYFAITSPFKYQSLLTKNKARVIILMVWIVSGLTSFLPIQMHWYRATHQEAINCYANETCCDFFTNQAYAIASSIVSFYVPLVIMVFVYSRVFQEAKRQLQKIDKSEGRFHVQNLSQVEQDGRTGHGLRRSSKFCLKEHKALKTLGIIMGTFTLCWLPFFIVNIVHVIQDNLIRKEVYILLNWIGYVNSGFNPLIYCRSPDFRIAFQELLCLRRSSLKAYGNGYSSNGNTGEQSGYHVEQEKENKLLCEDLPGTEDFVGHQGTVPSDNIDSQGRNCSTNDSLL
# RanGTP-Impb inh: inhibitors of RanGTP-importin-beta interaction, primary screen, biochemical, FRET, CFP-Ran, YFP-importin-beta, homogeneous; cell-free CFP-Ran/YFP-importin-beta FRET ratio; inhibition, % (test concentration not listed); AID 2216; 1.1% of 300,000 active;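 active = most replicates above 15%; inconclusive = exactly half above 15%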;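 also: 0% = DMSO wells and 100% = Ran loaded with GDP instead of GTP; wells of about 40 µL received 100 nL stock; the first replicate is given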
# ALR inh: inhibitors of human sulfhydryl oxidase ALR | P55789 | AID 485317 | inhibition, % (test concentration not listed) | 3.8% of 290,000 active | purified ALR, DTT oxidation, H2O2 HRP-luminol luminescence;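 active = mean and each replicate at 75% or more; inconclusive = only one of the two met; inactive = neither met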;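 also: stock transfer was 7.5 nL into about 7.5 µL; 0% = neutral wells and 100% = wells with inactivated enzyme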
# Target sequence (P55789 whole entry, looked up): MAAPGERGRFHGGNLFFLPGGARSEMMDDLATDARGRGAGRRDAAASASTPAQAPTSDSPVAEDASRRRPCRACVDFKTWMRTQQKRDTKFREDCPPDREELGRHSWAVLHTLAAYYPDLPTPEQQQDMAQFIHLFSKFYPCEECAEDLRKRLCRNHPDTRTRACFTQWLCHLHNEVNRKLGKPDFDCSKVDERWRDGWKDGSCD
# Calb FLC: C. albicans growth modulation with fluconazole; C. albicans CaCi-2 (fluconazole-resistant clinical isolate) + fluconazole, Alamar Blue growth, 48 h; 0.57% of 300,000 active; growth inhibition, % (no concentration beside the values);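 active = most replicates above 75%; inconclusive = exactly half above 75%; inactive = most below 75%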;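 also: all wells also contain fluconazole at 8 µg/ml as a sub-toxic cotreatment; 0% = median of DMSO wells and 100% = median of geldanamycin control wells; wells of about 8 µL received 7.5 nL stock; the first replicate is given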
# LANA-H2A inh: blocks KSHV LANA binding to histone H2A/H2B | Q9QR71 | cell-free LANA-H2A/H2B peptide, fluorescence polarization | inhibition, % (concentration not given with the values) | AID 2629 | 0.6% of 320,000 active; in the data active = inhibition mostly above about 10%, no sharp cut-off; inactive = mostly below about 6.7%;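 also: stock transfer was 7.5 nL into about 10 µL; 0% = median of vehicle wells and 100% = median of positive control wells; one replicate is shown; the record names a cut of 25% in any replicate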
# HNF4A DNA FP: change in binding of human HNF4 alpha to DNA | HNF4a-FITC DNA binding, fluorescence polarization, 1 h | activity change, % at 10 µM | 0.3% of 360,000 active | AID 1224865; in the data active = activity change above about 30%, passing the limit was not always enough;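 also: controls were the assay level and a saturating level of protein; the project sought stronger binding though the title names inhibitors; some compounds called inactive have numbers as strong as hits; positive values seem to mean higher polarization but the record does not say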
# Target sequence (P41235 whole entry, looked up): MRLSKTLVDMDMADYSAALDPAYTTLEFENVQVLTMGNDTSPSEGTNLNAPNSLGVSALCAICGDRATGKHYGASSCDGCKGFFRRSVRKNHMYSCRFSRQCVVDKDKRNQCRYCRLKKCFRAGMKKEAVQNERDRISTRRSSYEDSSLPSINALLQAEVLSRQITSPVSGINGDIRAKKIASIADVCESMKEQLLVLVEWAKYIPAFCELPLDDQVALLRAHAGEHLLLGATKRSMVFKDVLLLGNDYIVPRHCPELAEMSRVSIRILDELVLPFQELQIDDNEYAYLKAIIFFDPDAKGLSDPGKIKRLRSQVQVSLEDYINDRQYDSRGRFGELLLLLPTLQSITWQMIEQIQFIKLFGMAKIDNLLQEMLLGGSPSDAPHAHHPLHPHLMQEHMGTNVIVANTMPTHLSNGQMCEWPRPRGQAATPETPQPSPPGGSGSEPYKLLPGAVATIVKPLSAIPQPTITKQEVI
# * = called active by the depositor; i = inactive; ? = inconclusive; . = not tested or not shown; & = joins results of further samples.
SMILES,Vif A3G,B2AR ag,RanGTP-Impb inh,ALR inh,Calb FLC,LANA-H2A inh,HNF4A DNA FP
CNc1cc(Cl)nc(SC)n1,1%,-6,-4.0,23,28,-2.5,1.6
Clc1ccc(OCCOCCN2CCc3ccccc3C2)c(Cl)c1,.,-9,-2.7,-55,1,-0.7,2.5
CN(C)c1ccc(/C=C(/NC(=O)c2ccccc2)C(=O)N2CCCC2)cc1,.,2,0.5,.,5,23,5.1
Cc1ccc(N2CCN(S(=O)(=O)c3ccc4c(c3)n(C)c(=O)c(=O)n4C)CC2C)cc1 (configuration not stated),21%,1,-0.1,-6,-2,2.7,-4.3
CC1(C)Cc2c(sc3[nH]c(=S)n(Cc4ccco4)c(=O)c23)CO1,7%,32,1.4,98*,32,-3.3,-0.4
Cc1ccc(NC(=O)CN2C(=O)N/C(=C/c3cccn3-c3ccc(C(=O)O)cc3)C2=O)cc1,.,13,.,97*,.,1.3,-68
OC(Cc1cccnc1)c1ccccc1 (configuration not stated),-6%,-4,.,.,.,.,0.8
Nc1c(C(=O)Nc2ccc3c(c2)OCCO3)nnn1Cc1ccccc1Cl,-3%,4,1.4,-10,4,3.2,5.2
O=C(Nc1ccc2c(c1)CCC2)c1cccc(S(=O)(=O)N2CCN(c3ccc(F)cc3)CC2)c1,-6%,-3,-1.0,-10,?,-3.5,4.1
CCOC(=O)C[C@H]1c2cc(F)ccc2S(=O)(=O)N1Cc1ccc(OC)cc1,.,-2,0.9,-1,-20,-2.1,2.6
Cc1noc(NS(=O)(=O)c2ccc(NC(=O)C(F)(F)C(F)(F)C(F)(F)F)cc2)c1C,.,11,11,5,-2,11,-3.5
Cc1ccc(/C=C/C2=NN(Cc3ccccc3)C(=O)CC2)cc1,2%,0,0.0,12,-7,0.8,-0.5
COc1cccc(/C=N/NC(N)=S)c1OCc1cccc(Cl)c1,15%,-4,0.4,.,-60,-1.6,1.4
CC(C)CC(=O)Nc1ncc([N+](=O)[O-])s1,9%,-1,-0.5,14,-2,0.2,-1.5
CCOC(=O)c1c(C)nc(C)c(C(=O)OCC)c1-c1ccc(O)c(OC)c1,0%,9,?,6,31,-4.3,0.0
CCN(CC)S(=O)(=O)c1ccc(C(=O)OC2CCCCC2CN(C)C)cc1 (configuration not stated),-1%,0,26*,.,-11,7.1,-1.0
O=C(Nc1nc2ccc(S(=O)(=O)N3CCCCC3)cc2s1)C1CCCO1 (configuration not stated),-2%,2,-0.8,-1,7,0.3,2.5
O=C1Nc2c(ccc(Cl)c2Cl)C(=O)C1(F)c1ccccc1 (configuration not stated),.,1,-3.0,-4,-7,-3.9,2.1
CC(C)(C)c1ccc(/C=C(\C#N)C(=O)NCCN2CCOCC2)cc1,-9%,13,1.0,.,-9,4.4,-2.9
O=C(O)C1CC=C(Cl)CC1C(=O)NCC1OCCc2ccccc21 (configuration not stated),0%,0,6.1,-8,5,2.3,0.9
COC(=O)c1ccc(NC(=S)NC2CCc3ccccc32)cc1 (configuration not stated),0%,-11,6.1,0,-8,1.5,-1.1
Cc1ccccc1OCC(O)CN (configuration not stated),2%,-1,2.2,0,3,-5.8,1.8
N#CC(C#N)=Cc1cccn1-c1ccc(C(=O)O)cc1,10µM*,3,2.9,4,35,-1.3,-21
O=C(NC(=S)Nc1ccccc1Cl)c1cncc(C#Cc2ccccc2)c1,.,8,-0.7,3,-5,-4.5,-2.1
O=S(=O)(c1ccc(-c2ccon2)s1)N1CCOCC1,4%,-9,1.0,0,1,-0.8,0.9

# Shown as a hit in Vif A3G (from the list above):
structure,Vif A3G,B2AR ag,RanGTP-Impb inh,ALR inh,LANA-H2A inh,HNF4A DNA FP
N#CC(C#N)=Cc1cccn1-c1ccc(C(=O)O)cc1,10µM*,3,2.9,4,-1.3,-21

# Further records
SMILES,Vif A3G,B2AR ag,RanGTP-Impb inh,ALR inh,Calb FLC,LANA-H2A inh,HNF4A DNA FP
CC(C)C(=O)NC(=S)/C=C1/N(C)c2ccccc2C1(C)C,-3%,-1,-0.1,10,-11,-0.1,69*
COc1cccc(-c2cc(N3C(=O)Nc4ccccc4N3O)n[nH]2)c1,13%,-3,2.4,-24,4,5.9,0.7
C1CCC(OCCN2CCN(CCOC3CCCCC3)CC2)CC1,-5%,4,-3.3,2,1,5.9,-2.7
N#CCc1nc(C(c2ccccc2)c2ccccc2)no1,.,-1,2.0,67,0,-1.3,7.6
O=S(=O)(NCCSc1nnc(-c2ccco2)n1-c1ccccc1)c1ccccc1,-1%,-5,0.7,.,-6,-1.9,0.9
Cc1sc2ncnc(N3CCN(Cc4ccccc4)CC3)c2c1-c1ccccc1,3%,8,4.9,0,-4,-0.7,0.8
COc1cc2c(c(OC)c1OC)-c1c(cc3c(c1O)OCO3)C[C@@H](C)[C@@H](C)C2,10%,4,1.5,-9,12,4.8,-1.7
CC(C)=CCOc1ccc2c(C)c(CC(=O)N3C[C@H]4C[C@@H](C3)c3cccc(=O)n3C4)c(=O)oc2c1C,.,-18,5.9,-3,12,3.1,-0.6
CCOC(=O)c1sc2ccccc2c1NC(=O)c1coc2ccccc2c1=O,.,-3,0.9,-11,5,-1.6,-2.8
CCN(CC)S(=O)(=O)c1cccc(NC(=O)c2cc(=O)[nH]c3ccccc23)c1,-3%,3,2.7,-10,8,-2.7,-1.7
O=C(Nc1ccccc1C(=O)Nc1ccc2c(c1)OCO2)c1cccs1,28%,24,0.8,-23,2,-1.3,0.4
N#CC(C#N)=C1NC(N)=C(C#N)C(c2ccccc2)=C1C#N,.,10,-1.6,.,-6,-0.1,8.4
CC1(C)Cc2c(sc3nn[nH]c(=O)c23)CO1,1%,3,3.4,1,-1,-0.7,-0.6
CCC1(c2ccccc2)NC(=O)N(CC(=O)N(C)Cc2c(F)cccc2Cl)C1=O (configuration not stated),.,82*,2.3,1,-4,3.0,0.8
CCN(CC)S(=O)(=O)c1ccc(C(=O)OCCN2C(=O)c3cccc4c(N5CCOCC5)ccc(c34)C2=O)cc1,-5%,2,i,-9,5,27*,-88
CC1(C)CC(=O)C2=C(C1)N(Cc1ccccc1)C(=O)C2(NC(=O)C(C)(C)C)C(F)(F)F (configuration not stated),-1%,-2,1.7,-1,14,-1.1,4.3
COc1cccc(/C=N/NC(=O)c2cc(-c3ccccn3)nc3ccccc23)c1O,-5%,12,.,7,.,5.9,1.1
O=C(NCc1ccc(Cl)cc1)C(=O)N/N=C/c1ccc(Br)cc1,-3%,11,-4.9,-3,-1,-1.8,-0.7
CC1Cc2ccccc2N1C(=O)CSc1nc2ccccc2o1 (configuration not stated),-2%,-10,?,-6,24,2.0,-0.1
Cc1cc([N+](=O)[O-])ccc1-c1ccc(C2Nc3ccccc3C(=O)N2O)o1 (configuration not stated),9%,11,1.3,10,101*,2.6,1.0
CC(C)(C)NC(=O)NC(=O)CSc1cccc(C(F)(F)F)c1,-4%,-5,2.3,-3,10,-1.9,-1.0
NC(=O)[C@@H]1CCCNc2c(I)cc([N+](=O)[O-])cc2C(=O)N[C@@H](CO)C(=O)NCC(=O)N1,30%,.,.,-5,.,-5.6,.
C=CCCN(C(CC(C)C)C(=O)OC)S(=O)(=O)c1ccccc1Br (configuration not stated),4%,11,-2.0,-13,-2,2.7,-2.5
O=C(Nc1cccc(NC(=O)c2ccc(Cl)cc2Cl)c1)c1cccnc1,.,1,-1.9,-2,2,-0.9,0.3
CCN(CCCNC(=O)CCn1c(=O)[nH]c2ccccc2c1=O)c1ccccc1,7%,5,2.1,98*,-2,1.8,0.2

# Entries of single compounds, looked up by structure. Order of values: Vif A3G, B2AR ag, RanGTP-Impb inh, ALR inh, Calb FLC, LANA-H2A inh, HNF4A DNA FP
# Entry for `O=C(Nc1cccc(NC(=O)c2ccc(Cl)cc2Cl)c1)c1cccnc1` = ., 1, -1.9, -2, 2, -0.9, 0.3
# Entry for `CCN(CC)S(=O)(=O)c1cccc(NC(=O)c2cc(=O)[nH]c3ccccc23)c1` = -3%, 3, 2.7, -10, 8, -2.7, -1.7
# Entry for `COc1cccc(-c2cc(N3C(=O)Nc4ccccc4N3O)n[nH]2)c1` = 13%, -3, 2.4, -24, 4, 5.9, 0.7
# Entry for `CCN(CCCNC(=O)CCn1c(=O)[nH]c2ccccc2c1=O)c1ccccc1` = 7%, 5, 2.1, 98*, -2, 1.8, 0.2
# Entry for `N#CC(C#N)=C1NC(N)=C(C#N)C(c2ccccc2)=C1C#N` = ., 10, -1.6, ., -6, -0.1, 8.4

# Next part:
SMILES,Vif A3G,B2AR ag,RanGTP-Impb inh,ALR inh,Calb FLC,LANA-H2A inh,HNF4A DNA FP
COc1ccccc1N(C)S(=O)(=O)c1ccc(Cl)c(C(=O)N2CCC2)c1,-1%,2,6.6,4,19,1.4,-1.2
CCOC(=O)C(CC)Sc1nc(N)c(NC(=O)c2ccc(OC)c(OC)c2)c(=O)[nH]1 (configuration not stated),-2%,0,-1.8,4,-4,2.8,0.6
CCCNS(=O)(=O)c1ccc(OCC(=O)Nc2ccc3c(c2)OCCO3)cc1,5%,6,3.8,-5,-2,7.3,1.4
Cc1ccc(S(=O)(=O)Cc2cccc(C(=O)N3CCOCC3)c2)cc1,10%,6,-1.0,2,33,0.8,3.2
CCN(CC)C(=O)CSc1nc2ccccc2c(=O)n1CCC(=O)N1CCN(c2ccccc2)CC1,5%,-2,?,?,-3,1.0,-5.3
COc1cccc(N2CCN(C(=O)CN3C(=O)NC(C)(c4ccc5ccccc5c4)C3=O)CC2)c1 (configuration not stated),-11%,4,9.3,-5,.,2.1,5.6
CC1(C)CCCN(C(=O)c2coc(=O)c(Br)c2)C1,3.5µM*,6,1.5,.,3,.,-56
Cn1c(=O)c2c(nc(N/N=C/c3ccco3)n2C)n(C)c1=O,18%,1,6.8,.,16,-3.9,3.3
COc1ccc(N2CCN(C(=O)COc3cccc4ccccc34)CC2)cc1,1%,1,6.4,49,-14,1.4,1.4
Cc1sc2ncnc(SCc3ccco3)c2c1C,28µM*,-2,5.0,91*,0,4.8,-0.2
CCc1ccccc1NS(=O)(=O)c1ccc2[nH]cc(C(=O)NC3CCCC3)c(=O)c2c1,15%,1,1.1,.,23,.,-1.6
Cc1[nH]n(S(=O)(=O)c2ccccc2)c(=O)c1N=Nc1cccc(Cl)c1,-7%,5,3.8,-5,-7,-3.0,-3.0
CC(C)(C)[C@H]1COC(=O)[C@@H](Cc2ccc(F)cc2)CC/C=C/C[C@@H](CC(=O)N[C@H](CO)Cc2ccccc2)C(=O)N1,.,-3,.,-12,.,1.4,1.7
NC(=O)CC(NC(=O)Cc1cccc2ccccc12)c1ccc(NC2CCN(Cc3ccccc3)CC2)c([N+](=O)[O-])c1 (configuration not stated),.,5,4.7,1,-5,2.2,7.7
COc1ccc(CNc2nc(NC(C)=O)nn2-c2ccccc2)cc1,-2%,2,0.9,0,1,1.2,1.0
CCOc1ccc(N(CC(=O)NCc2ccc(OC)cc2)S(=O)(=O)c2c(C)noc2C)cc1,?,0,-1.3,0,1,-0.4,1.3
COc1ccc(CNC(=O)CN(C(=O)c2csnn2)c2ccc(C(C)=O)cc2)cc1,-5%,10,0.7,1,-1,1.1,-3.5
NC(=O)CSc1nnnn1-c1ccc(OC(F)(F)F)cc1,0%,14,-1.5,.,-7,-0.4,1.7
C[C@]12CCC(=O)C=C1CC[C@@H]1[C@@H]2[C@@H](O)C[C@@]2(C)[C@H]1CC[C@]2(O)C(=O)COC(=O)CCC(=O)O,26%&-7%,0&-12,?,0&-2,.,0.4&0.2&-3.2,5.3&-3.1
CCCCCn1c(=O)[nH]c2cc(C(=O)NCCc3ccc(OC)c(OC)c3)ccc2c1=O,-4%,-4,2.1,-14,-3,0.6,1.2
